Compound activity deposited in PubChem by Center for Chemical Genomics, University of Michigan.
CDC25B CDK2 inh = human CDC25B-CDK2/CyclinA binding inhibition; HTRF CDC25B-CDK2/CyclinA binding, anti-His/anti-Flag; active compounds read high; z-score (concentration not given with the values); 0.72% of 94,000 active;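 also: score is relative to mean and SD of negative controls; strong numbers were not always called active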
TAR Tat displ = HIV-1 TAR-Tat binding disruption | z-score (test concentration not listed) | 0.6% of 100,000 active | HIV-1 TAR RNA, Tat peptide displacement FRET; active compounds read high;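 also: score is relative to mean and SD of negative controls; some compounds called inactive have numbers as strong as hits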
Active calls of the source: *; · = no result given.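 The calls were made as follows: active = z-score from 3 up in half or more of its runs; inactive = the rest.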

Structure | TAR Tat displ | CDC25B CDK2 inh
COc1cc(OC)c(NC(=O)N2CCCC(CN3CCc4ccccc4C3)C2)cc1Cl (configuration not stated) | -0.3 | ·
COc1ccc(-c2cc(C(F)(F)F)n3nc(C(=O)O)c(Cl)c3n2)cc1 | 0.9 | ·
N#CSCc1ccc(C#N)cc1 | · | -1.2
CC1CC(C)CN(S(=O)(=O)c2ccc3c(c2)oc(=O)n3CC(=O)N2CCCC2)C1 (configuration not stated) | 0.92 | 0.45
COc1cc(C(=O)Nc2nc3c(C)cccc3s2)cc(OC)c1OC | · | -3.1
CCC(C)Nc1nc(-c2ccc(Cl)cc2)nc2ccccc12 (configuration not stated) | 0.02 | ·
C=CCNc1nc(Nc2ccc(C)cc2)c2cnn(C)c2n1 | 0.98 | ·
NC(=O)c1ccc(NC(=O)CCCc2nc(-c3ccco3)no2)cc1 | 0.92 | -1.1
O=C(Nc1ccccc1Cl)C1CC2CCCN2C12C(=O)Nc1ccccc12 (configuration not stated) | -0.98 | ·
CS(=O)(=O)Nc1cccc(C2=NN(C(=O)c3ccccc3)C(c3cccs3)C2)c1 (configuration not stated) | · | -0.87
CNc1nc(NCc2ccccc2)c2cnn(C)c2n1 | 1.5 | ·
O=C(NC1CCCC1)c1ccc2c(=O)n3c(nc2c1)CCCCC3 | -0.24 | -1.7
O=C(CCCn1ncn2c(cc3occc32)c1=O)N1CCCCC1 | 1.8 | -0.34
CC(=O)Nc1nc(C)c(Oc2cccc(C(F)(F)F)c2)c(=O)[nH]1 | · | -0.38
CCCc1nc(SCc2cc(=O)c3ccccc3[nH]2)n[nH]1 | 0.14 | ·
CCc1ccc(CNC(=O)C(CC)n2nc(C)n3c(cc4occc43)c2=O)cc1 (configuration not stated) | 0.72 | -1.1
CCCCN(C)CCCNC(=O)C1CCC(=O)N1C1CCCCC1 (configuration not stated) | · | -2.3
C=CCOc1ccc(C(=O)N(Cc2ccc(C(C)C)cc2)C2CCS(=O)(=O)C2)cc1 (configuration not stated) | 0.25 | -1.6
CC(=O)Nc1nnc(SCc2nc3cc(C)c(C)cc3[nH]c2=O)s1 | -3.8 | ·
O=S(=O)(c1ccc(-c2ccc(N3CCOCC3)nn2)s1)N1CCOCC1 | 1.8 | ·
O=S(=O)(c1ccc2c(c1)OCCO2)N1CCN(c2ccc(C(F)(F)F)cn2)CC1 | · | -1.6
CCOC(=O)N1CCN(S(=O)(=O)c2ccc3c(c2)CC(C)N3C(=O)CC)CC1 (configuration not stated) | 2.9 | ·
O=C(CSc1nc2[nH]ncc2c(=O)n1-c1ccc(Cl)cc1)Nc1ccc(F)c(F)c1 | · | -0.04
O=C1c2ccc(-c3nc4cc(Cl)ccc4c(=O)o3)cc2C(=O)N1CC1CCCO1 (configuration not stated) | · | -0.31
Cc1ccc(S(=O)(=O)c2nc(S(=O)(=O)c3ccccc3)sc2NCc2cccnc2)cc1 | -1.1 | -1.1
CC(=O)NC1=NN(C(C)=O)C(c2ccc(OC(=O)c3cccs3)c(Br)c2)S1 (configuration not stated) | 1.3 | -1.4
Cn1c(=O)c2sccc2n2c(CCC(=O)N3CCC(N4CCCCC4)CC3)nnc12 | 0.29 | ·
O=C(NC(=S)Nc1ccc(O)c(-c2nc3ccccc3o2)c1)c1ccc(F)cc1 | · | -3.3
O=S(=O)(c1ccccc1)c1nnn2c1nc(Nc1ccc(F)cc1)c1sccc12 | 0.25 | ·
CCCc1cc(=O)n2nc(N(C)CC(=O)NCCCN3CCCCC3)sc2n1 | 1.4 | -1.9
CN(C)CCn1c2ccccc2n2cc(-c3ccc4c(c3)OCO4)nc12 | 3.5 | -2.4
COCCOC(=O)C1=C(C)Nc2nc3ccccc3n2C1c1ccc(O)c(OC)c1 (configuration not stated) | 0.88 | -0.17
O=S1(=O)N=C(Nc2ccc(F)c(Cl)c2)c2ccccc21 | -1.1 | -3
C=CCOc1ccc(C2/C(=C(\O)c3ccc(OCC)cc3)C(=O)C(=O)N2c2nnc(C)s2)cc1 (configuration not stated) | 1.1 | -2.2
CCN(CC)CCN1CNC(=S)NC1 | · | -1.3
CCc1cccc(-n2nnc(-c3nc(-c4ccc(Cl)cc4)no3)c2N)c1 | -0.39 | ·
Cc1cc(C(=O)Nc2nc3ccc(Cl)cc3s2)nn1C | · | -2.8
CC(=O)NC1=NN(C(C)=O)C(c2ccc(-c3ccc(Cl)cc3)o2)S1 (configuration not stated) | -0.54 | -0.11
O=C1c2ccccc2C(Nc2ccccc2Br)N1c1ccccn1 (configuration not stated) | 0.77 | 0.67
O=C(Nc1scc2c1c(=O)oc1ccccc12)c1cccs1 | · | -1.9
CCCC1=NN(C(=O)c2ccc(C)cc2)C(O)(C(F)(F)F)C1 (configuration not stated) | · | -0.86
CCn1c(Cn2cccn2)nc2cc(NC(=O)CC(C)C)ccc21 | 0.09 | -1.8
Cc1nc(-c2csc(S(=O)(=O)NCc3ccco3)c2)no1 | 2.8 | ·
COc1ccc(OC)c(C2CC(=O)NC3=C2C(=O)CC(c2ccc(OC)c(OC)c2)C3)c1 (configuration not stated) | 1.5 | -1.2
COCCn1c(-c2ccc(F)cc2)cnc1NCc1ccccc1 | 0.07 | -1.1
Cc1ccc(N(CC(O)CN2CCOCC2)S(=O)(=O)c2ccc(C)cc2)cc1 (configuration not stated) | 0.74 | -0.61
O=C1CCc2cc(S(=O)(=O)NC(Cc3ccccc3)C(=O)NCc3cccs3)ccc2N1 (configuration not stated) | · | -1.1
CC1CC(=O)Nc2ccccc2N1C(=O)c1ccco1 (configuration not stated) | -1.1 | -2.2
CCc1cccc(Nc2nc3ccccc3n3nnnc23)c1 | -1.1 | -0.98
Cc1cc(-c2ccc(C)c(S(=O)(=O)Nc3ccc(Cl)cc3)c2)n[nH]1 | -0.47 | ·
CCCN1CCCC[C@H]1C(=O)Nc1c(C)cccc1C | 2.2 | ·
O=C(COc1ccc(Cl)cc1)OCc1cc(=O)n2nc(-c3cccs3)sc2n1 | 1.6 | ·
COc1cccc(C2CC(=O)N3CN(Cc4ccco4)CSC3=C2C#N)c1 (configuration not stated) | -0.78 | 15*
O=c1cc(O)c2sc3nc(-c4cccs4)cc(-c4ccc(Cl)cc4)c3c2[nH]1 | -9.1 | -0.75
O=C(OCc1ccccc1)Oc1cncc(C(=O)O)c1 | 0.79 | -1
CCC(=O)Oc1ccc(/C=C2\C(=O)N(c3ccc(Cl)c(C(=O)O)c3)N=C2C)cc1OC | · | 0.44
Cc1csc2nc(CSc3nnc(NC(=O)c4ccccc4)s3)cc(=O)n12 | 1 | ·
CCCNC(=O)CSC1=NS(=O)(=O)c2ccccc2N1CCC | 1.2 | ·
O=C1Sc2ccc(S(=O)(=O)Nc3cccc(Cl)c3)c3cccc1c23 | -2.4 | 0.35
COc1ccc(CN(C)CCc2ccccn2)cc1OC | 3.1 | 0.16

Molecules from the list above containing fluorine (9):
Structure | TAR Tat displ | CDC25B CDK2 inh
COc1ccc(-c2cc(C(F)(F)F)n3nc(C(=O)O)c(Cl)c3n2)cc1 | 0.9 | ·
CC(=O)Nc1nc(C)c(Oc2cccc(C(F)(F)F)c2)c(=O)[nH]1 | · | -0.38
O=S(=O)(c1ccc2c(c1)OCCO2)N1CCN(c2ccc(C(F)(F)F)cn2)CC1 | · | -1.6
O=C(CSc1nc2[nH]ncc2c(=O)n1-c1ccc(Cl)cc1)Nc1ccc(F)c(F)c1 | · | -0.04
O=C(NC(=S)Nc1ccc(O)c(-c2nc3ccccc3o2)c1)c1ccc(F)cc1 | · | -3.3
O=S(=O)(c1ccccc1)c1nnn2c1nc(Nc1ccc(F)cc1)c1sccc12 | 0.25 | ·
O=S1(=O)N=C(Nc2ccc(F)c(Cl)c2)c2ccccc21 | -1.1 | -3
CCCC1=NN(C(=O)c2ccc(C)cc2)C(O)(C(F)(F)F)C1 (configuration not stated) | · | -0.86
COCCn1c(-c2ccc(F)cc2)cnc1NCc1ccccc1 | 0.07 | -1.1

The results go on.
Structure | TAR Tat displ | CDC25B CDK2 inh
CC1=NN(c2ccccc2)C(=O)/C1=C1/C(=O)N(c2ccccc2)N=C1C | · | 1.1
COCCNc1nc2c(S(=O)(=O)c3ccc(C(C)C)cc3)nnn2c2ccsc12 | 1.5 | ·
CCOC(=O)c1sc(NC(=O)c2csnn2)nc1C | -0.29 | 1.2
COC(=O)c1ccc(Oc2ncnc3scc(-c4ccccc4)c23)o1 | · | -0.79
CC1CC2(C)Oc3ccccc3C3OCC1(COC(=O)c1ccccc1)C(C)C32 (configuration not stated) | 1.2 | -0.92
Cc1nc2sc3c(=O)n(C(C)(C)C)nnc3c2c(C)c1Br | 0.94 | -2.1
Cc1ccc(S(=O)(=O)c2nc(S(=O)(=O)c3ccccc3)sc2NCC2CCCO2)cc1 (configuration not stated) | -0.22 | -2.6
CCOC(=O)C1CCN(c2c(NC(C)CC)c(=O)c2=O)CC1 (configuration not stated) | -0.9 | -0.87
CCC(=O)N1C(=O)C(=O)c2ccccc21 | 1.7 | 2.5
CN(C)CCCN(C(=O)c1ccc(F)cc1)c1nc2ccc(Br)cc2s1 | -0.37 | ·
O=C(OCC1CCCO1)c1cnn2c(C(F)(F)F)cc(-c3ccccc3)nc12 (configuration not stated) | 1.2 | 0.39
COC(=O)C1=C(C)NC2=C(C(=O)c3ccccc32)C1c1cccc(OC)c1 (configuration not stated) | -1.1 | -0.28
CCCCNC(=O)N1CCC(n2cccc2)CC1 | · | -2.6
CCOc1c(Nc2cc(C)ccc2C)c(=O)c1=O | 0.68 | ·
O=C(NCCCO)c1nn(-c2ccc(Cl)cc2)nc1CO | -1.7 | -0.82
Cc1ncc(CO)c(CNc2ccccc2)c1O | 0.75 | ·
COc1ccc(C(=O)c2cnc3ccccc3c2S(=O)(=O)c2ccccc2)cc1 | 1.1 | -3.4
O=S(=O)(CS(=O)(=O)c1ccccc1Cl)c1ccccc1Cl | · | 0.16
CCn1cc(CNC(=O)CCSc2nc(-c3ccco3)cc(C(F)(F)F)n2)cn1 | 2 | -0.86
Cn1nc(C(=O)NCCCN2CCCC2=O)c2c1-c1ccccc1OC2 | 0.14 | -1.3
O=C(C1CC1)N1CCc2cc(Br)cc(S(=O)(=O)NCCc3ccc(Cl)cc3)c21 | 0.45 | -0.04
CCCc1c2c(cc3c(=O)cc(C(=O)OCC)oc13)CCCC2 | · | -2.2
CN(C)CCCN(C(=O)c1ccco1)c1nc2ccc(Br)cc2s1 | 0.28 | ·
C(#Cc1ccc(-c2ccn[nH]2)s1)c1ccccc1 | · | -2
O=C(NC1CCCC1)C1(c2cccs2)CCOCC1 | -0.69 | ·
O=C1CCCc2cc(S(=O)(=O)Nc3ccc4c(c3)OCCO4)ccc2N1 | 0.13 | ·
CC(=O)Oc1ccc(C2C(C(=O)OC3CCCC3)=C(C)NC3=C2C(=O)CC(c2cccs2)C3)cc1 (configuration not stated) | 0.04 | -0.06
CCOC(=O)c1cnc(N2CCCC2)nc1N | 0.74 | 0.72
Cc1nn2c(=O)cc(COC(=O)c3ccccc3)nc2s1 | -0.22 | ·
Cc1ccc(NC(=O)CSc2nncn3c2cc2occc23)c(C)c1 | 0.9 | ·
Cc1c2c(cc3c1oc(=O)c1ccccc13)CN(Cc1ccc3c(c1)OCO3)CO2 | 2.8 | -0.57
Cc1cccc(CNc2nc(NCCO)nc3c2cnn3C)c1 | 3.1 | ·
CSc1cccc(NC(=O)c2cc(-c3ccccn3)n[nH]2)c1 | 3.2 | ·
COc1ccc(CCNS(=O)(=O)c2ccc3[nH]c4c(c3c2)CCCC4)cc1OC | 0.42 | ·
O=C(Nc1ccc(Nc2ccccc2)c2c1C(=O)c1ccccc1C2=O)c1ccccc1 | · | -1.7
O=C(CCCN1C(=O)c2cccnc2Oc2ccccc21)NCc1ccccn1 | 1.2 | ·
CCOc1ccccc1NCc1nnc2n1CCCCC2 | 0.1 | ·
Cc1ccc2cc(CN(c3ccc(C)c(C)c3)S(C)(=O)=O)c(=O)[nH]c2c1 | -1.1 | -4.8
O=C1CC(c2nc3ccccc3n2CCN2CCOCC2)CN1c1cccc(Cl)c1 (configuration not stated) | 0.67 | 0
CC(C)C1C(=O)Nc2ccc(S(=O)(=O)N3CCN(C4CCCCC4)CC3)cc21 (configuration not stated) | 0.54 | ·
CC1CN(c2nc(Nc3ccc(Cl)cc3)c3cnn(C)c3n2)CC(C)O1 (configuration not stated) | 0.49 | ·
O=c1c2c(sc3ccccc13)NCN(Cc1ccccc1)C2 | · | -1.6
O=C(NCc1cccc(Br)c1)Nc1cccs1 | -6.1 | 0.39
CC(C)C1CC(CCN2CCCCC2)(c2ccccc2)CCO1 (configuration not stated) | -1.2 | -0.06
Fc1ccc(Nc2ncc3c(n2)CCN(Cc2cccc(Br)c2)C3)cc1 | 0.18 | ·
Cc1ccc(-n2ncc3c(NCCCOC(C)C)ncnc32)cc1C | 2.1 | ·
Oc1cccc(CN2CCN(C/C=C/c3ccccc3)CC2)c1 | -0.74 | -2.7
Cc1ccc2nc(NC3CCCCC3)c3nnnn3c2c1 | -0.24 | ·
CCC(C(=O)Nc1ccccc1Br)n1nc(C)c2sc3ccccc3c2c1=O (configuration not stated) | 1.6 | -2.7
O=C(Nc1cccc(-c2ncon2)c1)c1cccs1 | · | -1.8
CCCN(CCC)c1cc(C(=O)O)c2cc(N)ccc2n1 | -7.4 | ·
OC(COCc1ccccc1)CN1CCN(c2ccccc2F)CC1 (configuration not stated) | · | -0.58
CC(=O)N1CCc2cc(Br)cc(S(=O)(=O)N3CCN(C(=O)c4ccco4)CC3)c21 | 0.79 | 0.81
O=c1cc(-c2ccc(O)cc2)oc2ccccc12 | · | -1.6
CC(C)(C)NC(=S)NC1CCN(Cc2ccccc2)CC1 | · | -0.2
C=C(C)Cn1c(N2CCN(CC)CC2)nc2c1c(=O)[nH]c(=O)n2C | · | -0.72
